# Assay outcomes from PubChem.
# TsaE inh – qHTS Assay for Inhibitors of YjeE. purified YjeE, fluorescence polarisation of a bound ADP probe. Potency, µM. 0.05% of 71,000 active. tRNA threonylcarbamoyladenosine biosynthesis protein TsaE (Escherichia coli (strain …. AID 605, 2007; active = well fitted falling curve; inconclusive = weaker or top-dose-only fall, or a rising curve; inactive = flat or poorly fitted curve;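 further: top concentration of the series not given in the record; excess ADP was the control for the full effect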
#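 Fluorescence polarization of a BODIPY Texas Red–ADP probe (2 uM) bound to purified YjeE (10 uM) was read after 15 min room-temperature incubation with compounds. Loss of polarization marks inhibitors; ADP serves as titrated control.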
# Bst PK mod – Pyruvate Kinase; 1.2% of 51,000 active; partly purified Bacillus stearothermophilus pyruvate kinase, luminescence ATP production; ribose 5-phosphate activator present at AC10; AID 361, 2006; Potency, µM; in the data active means potency below about 11 µM; inconclusive means mostly about 12 µM to 25 µM; inactive means weaker than that;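 the screen sought inhibitors and activators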;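 further: potency means the concentration at half of the fitted maximal effect; scaled between full activation by ribose 5 phosphate and full inhibition by luteolin; about four in five hits inhibit and the cells do not say which; series up to 57 µM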
# Active calls of the source: *; i = inactive; ? = inconclusive; . = not tested or not shown. These rows are one share of the data; the hit share may differ from the screen's.
# The line under a structure holds: Bst PK mod | TsaE inh
Cc1csc(NC(=O)C2CCCN(S(=O)(=O)c3cccnc3)C2)n1 (stereo not drawn)
 : . | i
NC(=NCc1ccc(Cl)c(Cl)c1)NC(=O)c1nc(Cl)c(N)nc1N
 : . | i
CCCn1c2c(c(O)c(C(=O)Nc3ncccc3O)c1=O)CCCC2
 : >57 | i
Cc1cccc(C)c1NC(=O)CN1CCN(CCCC(c2ccc(F)cc2)c2ccc(F)cc2)CC1
 : . | i
Cc1ccc2cc(CN(Cc3nnnn3C3CCCCC3)CC3CCCO3)c(=O)[nH]c2c1 (stereo not drawn)
 : >57 | i
CN(Cc1ccccc1)Cc1nc2c(c(=O)n(C)c(=O)n2C)n1Cc1ccccc1Cl
 : >57 | i
CNC(=O)c1cc(C)c(-c2ccccc2)s1
 : . | i
O=C(Cn1cc(C(=O)c2ccco2)c2ccccc21)NC1CCCC1
 : >57 | i
COC(=O)c1c(F)c(F)c(NCCO)c(F)c1F
 : . | i
CCCCS(=O)(=O)c1sc2nc(C)cc(C)c2c1N
 : >57 | i
COc1ccc2[nH]cc(CCNc3cc(-c4ccc5c(c4)OCO5)ncn3)c2c1
 : . | i
CN=c1scc(C)n1/N=C/c1ccc2c(c1)OCO2
 : 3.2* | i
CC1Cc2cc(/C(O)=C3/C(=O)C(=O)N(Cc4ccco4)C3c3cccs3)ccc2O1 (stereo not drawn)
 : >57 | i
O=P(O)(CCc1ccccn1)CN1CCOCC1
 : . | i
CC(=O)c1cccc(NC(=O)N2CCCC2C(=O)Nc2cccc(C)c2)c1 (stereo not drawn)
 : >57 | i

# Brought forward from above: three entries, then new ones.
# The line under a structure holds: Bst PK mod | TsaE inh
CC1Cc2cc(/C(O)=C3/C(=O)C(=O)N(Cc4ccco4)C3c3cccs3)ccc2O1 (stereo not drawn)
 : >57 | i
O=P(O)(CCc1ccccn1)CN1CCOCC1
 : . | i
CC(=O)c1cccc(NC(=O)N2CCCC2C(=O)Nc2cccc(C)c2)c1 (stereo not drawn)
 : >57 | i
O=C(O)CCSc1ncnc2nc[nH]c12
 : . | i
CC(=O)O[C@H]1CSC[C@H]1NC(=O)c1ccccc1
 : >57 | i
O=c1c2cc(N3CCOCC3)ccc2[nH]c(=S)n1CC1CCCO1 (stereo not drawn)
 : >57 | i
CC(=O)Nc1nc2ccccc2n1Cc1ccccc1C
 : . | i
CC(C)c1nnc(NC(=O)CN(C)S(=O)(=O)c2ccc3c(c2)OCCO3)s1
 : >57 | i
C=CC(=O)OCCOCCOCCOCCOC(=O)C=C
 : . | i
CC(=O)n1c2ccccc2c2c(C#N)c(N3CCCCC3)sc21
 : >57 | i
COc1ccc(NC(=O)CSc2nc(C)cc(C(F)(F)F)n2)cc1
 : >57 | i
CCOc1cccc(-c2nc3cc(C)ccc3o2)c1
 : . | i
Cc1cc(SCC(=O)OCC(=O)N2CCN(C(=O)c3ccco3)CC2)c(C)cc1Br
 : >57 | i
Cc1c(NC(=O)C(C)Sc2nnc(-c3ccccc3)o2)c(=O)n(-c2ccccc2)n1C (stereo not drawn)
 : >57 | i
O=C(O)CC1(C(=O)O)CCCCC1
 : . | i
CC1(C)CCCC2=C1CC1C(=O)N(c3ccccc3)C(=O)C1C2 (stereo not drawn)
 : >11 | i
CCOC(=O)c1cc2cc(-c3c(C(=O)OCC)oc4cc(O)cc(O)c4c3=O)ccc2o1
 : >57 | i
O=C(CNC(=O)c1ccco1)OCc1c(F)cccc1Cl
 : >57 | i
COc1ccc(N2CCN(CCNC(=O)C3CCN(S(=O)(=O)c4cccs4)CC3)CC2)cc1
 : >57 | i
CC(C)(C)NC(=O)c1ccc2c(c1)N(CC(=O)N1CCN(c3ccc(F)cc3)CC1)C(=O)C(C)(C)O2
 : >57 | i
CCCCc1nc2ccccc2c(C(=O)O)c1C
 : >57 | i
CCc1cccc2c3c([nH]c12)C(CC)(CC(=O)O)OCC3 (stereo not drawn)
 : >11 | .
CCOC(=O)c1cc(-c2cc3ccccc3o2)n[nH]1
 : . | i
Cc1ccc2nc(NC(=O)c3cccs3)sc2c1
 : 4.2* | i
CCC(C)NC(=O)c1cnn2c(C)c3c(nc12)CCCC3 (stereo not drawn)
 : >57 | i
O=C(O)C1CC(=O)N(Cc2ccccc2)C1 (stereo not drawn)
 : >57 | i
CC(=O)ON(C(C)=O)S(=O)(=O)c1ccc(Cl)cc1
 : . | i
CN(C(=O)c1ccncc1)C1CCS(=O)(=O)C1 (stereo not drawn)
 : . | i
O=C(OCCN1CCOCC1)c1cccnc1
 : >57 | i
CCSc1nnc(Cc2cc(=O)[nH]c(=O)[nH]2)n1-c1ccc(F)cc1
 : . | i
CCN1CCCC1CN(Cc1cc2ccc(C)c(C)c2[nH]c1=O)C(=O)Nc1ccccc1OC (stereo not drawn)
 : >57 | i
Nc1cc(N)nc(SCC(=O)Nc2ccc3c(c2)OCCCO3)n1
 : >57 | i
O=C(O)c1ccc2oc(SCC(=O)N3CCCCC3)nc2c1
 : >57 | i

# Single values from the results shown:
# O=C(O)c1ccc2oc(SCC(=O)N3CCCCC3)nc2c1 in Bst PK mod is entered as >57
# CCCCc1nc2ccccc2c(C(=O)O)c1C in Bst PK mod is entered as >57

# Next entries follow:
# The line under a structure holds: Bst PK mod | TsaE inh
CCOc1ccccc1NC(=O)C1CCN(c2ccc(S(=O)(=O)N3CCCC3)cc2)CC1
 : >57 | i
COCCn1c(SCC(=O)NCCc2ccccc2)nnc1-c1ccco1
 : >57 | i
N=c1c2c(-c3ccccc3)c(-c3ccccc3)n(Cc3ccco3)c2ncn1Cc1ccco1
 : . | ?
COc1cccc(Cn2c(=O)c(-c3cc(F)cc(F)c3)nc3cnc(N4CCNCC4)nc32)c1
 : . | i
O=C(CN1CCOCC1)NC1C2CC3CC(C2)CC1C3 (stereo not drawn)
 : >57 | i
O=C1c2oc3ccccc3c(=O)c2C(c2cccc(Br)c2)N1Cc1ccco1 (stereo not drawn)
 : >57 | i
Nc1nnc(CC(=O)NCc2ccccc2)s1
 : >57 | i
c1csc(CNc2nc(-c3ccc4c(c3)OCO4)nc3ccccc23)c1
 : . | i
CCOc1ccc2[nH]c(=O)c(CN(Cc3ccccc3)C(=O)N3CCCC3)cc2c1
 : >57 | i
C=CCC1(O)C(=O)N2C(=C1C(=O)N1CCOCC1)c1ccccc1CC2(C)C (stereo not drawn)
 : . | i
COc1ccccc1NC(=O)C1=C(C)Nc2ncnn2C1c1ccc(C)o1 (stereo not drawn)
 : >57 | i
CCN(CC)S(=O)(=O)c1cccc(C(=O)NCC(=O)OCC(=O)NCc2ccccc2)c1
 : >57 | i
NC(=O)c1c(N)sc2c1CCCCC2
 : . | i
CCOc1ccc(NC(=O)CCNc2c(N3CCCC3)c(=O)c2=O)cc1
 : >57 | i
CCOC1(OCC)N=C(N)C2(C#N)C(c3cccc(OC)c3OC)C12C#N (stereo not drawn)
 : >57 | i
Cc1cccc(-n2ncc3c(NC(C)C)ncnc32)c1
 : . | i
CN1CCN(CC(=O)N2CCn3c4c(c5cc(C6CCCCC6)ccc53)CCCC42)CC1 (stereo not drawn)
 : . | i
Cc1c(C)n(C(=O)CSc2nncn2C)c2ccccc12
 : . | i
O=C(NCCOc1ccccc1)c1ccc2c(c1)OCO2
 : 8.1* | i
CC(=O)N=c1sc2c3ccccc3ccc2n1C
 : . | i
COc1ccc(-c2nnco2)cc1OC
 : >57 | i
O=C(O)c1ccc2c(c1)nnn2C1CCCCC1
 : >57 | i
O=C(CCC1CCCC1)N1CCN(C(=O)c2ccco2)CC1
 : . | i
CCN(CC(=O)Nc1ccc2c(c1)OCCO2)CC(=O)Nc1cc(C)on1
 : >57 | i
Cc1ccccc1CSCC(=O)c1c(N)n(C)c(=O)n(C)c1=O
 : >57 | i
CCOC(=O)c1ccc(N2CSC3=C(C#N)C(c4ccc(OC)cc4OC)CC(=O)N3C2)cc1 (stereo not drawn)
 : . | i
Nc1ncnc2c([C@@H]3O[C@@H](CO)[C@H](O)[C@@H]3O)nsc12
 : . | i
COc1cccc(/C(O)=C2\C(=O)C(=O)N(c3ccccn3)C2c2ccccc2OC)c1 (stereo not drawn)
 : >26 | .
CCC(=O)Nc1ccc(S(=O)(=O)c2ccc(NC(=O)CC)cc2)cc1
 : >57 | i
c1ccc(CSc2nnc(Cc3ccccn3)o2)cc1
 : >57 | i

# 4 entries from above, reformatted.
compound,Bst PK mod,TsaE inh
CNC(=O)c1cc(C)c(-c2ccccc2)s1,.,i
O=C(Cn1cc(C(=O)c2ccco2)c2ccccc21)NC1CCCC1,>57,i
COC(=O)c1c(F)c(F)c(NCCO)c(F)c1F,.,i
CCCCS(=O)(=O)c1sc2nc(C)cc(C)c2c1N,>57,i

# Carrying on.
# The line under a structure holds: Bst PK mod | TsaE inh
COc1ccc(/C(C)=N\n2cnnc2)cc1
 : . | i
O=S(=O)(c1cc(Cl)ccc1Br)N1CCCCC1
 : i | i
CCC(=O)N1CCN(c2ccc(Cl)cc2NC(=O)Cc2ccccc2)CC1
 : >57 | i
CCOC(=O)C1=C(N)OC2=C(C(=O)CC(C)(C)C2)C1c1ccoc1 (stereo not drawn)
 : >57 | i
Cc1ccnc2c(N3C(=O)C4C5C=CC(C5)C4C3=O)cccc12 (stereo not drawn)
 : . | i
Cn1c(C(=O)OC(C(=O)NC2CCCCC2)c2ccncc2)cc2sccc21 (stereo not drawn)
 : >57 | i
O=C(CCCSc1nc2ccccc2[nH]1)N1CCN(c2ccccc2)CC1
 : >57 | i
FC(F)(F)c1nc2ncc(Cl)cc2[nH]1
 : >57 | i
CC1N=C2c3ccccc3N=C(SCc3cc(=O)n4ccccc4n3)N2C1=O (stereo not drawn)
 : >57 | i
CC(=O)N(c1ccccc1)C1SC(=O)N(c2ccccc2)C1=O (stereo not drawn)
 : . | i
Cc1ccc(C(O)CN2C3=NCCN3c3ccccc32)cc1 (stereo not drawn)
 : >57 | i
Cc1ccc(-n2c(SCC(=O)OC(C)C)nnc2-c2cnccn2)cc1
 : >57 | i
C=CCn1c(C)cc(C(=O)CN2C(=O)c3ccccc3C2=O)c1C
 : 5.4* | i
CN1C(=O)NC(c2cccc(O)c2)C(C(=O)c2cccs2)C1(O)C(F)(F)F (stereo not drawn)
 : >57 | i
Cn1c(NCc2ccccc2)nc2c1c(=O)n(Cc1ccc(Br)cc1)c(=O)n2C
 : >26 | .
CC(C)Cn1c(CN(Cc2ccccc2)Cc2ccccc2)nc2c1c(=O)n(C)c(=O)n2C
 : . | i
CCOc1ccccc1NC(=O)N1C2CCCC1CC(NC(=O)C1CC1)C2 (stereo not drawn)
 : >57 | i
CNC(=O)C1CCC(=O)N1Cc1ccc(C)cc1 (stereo not drawn)
 : >57 | i
Cc1cc(-c2nnc(SCC(=O)NC3CCCC3)o2)no1
 : >57 | i
Cc1cc2ncn(C(=O)N3CCOCC3)c2cc1C
 : . | i
CCN(CC)S(=O)(=O)c1cc(C(=O)Nc2ccncc2)ccc1Cl
 : >57 | i
CN(C)/C=N/c1c(C#N)cnn1-c1ncnc2sc(-c3ccccc3)cc12
 : i | i
O=C(NCc1ccc2[nH]c3c(c2c1)CCCC3)N1CCOCC1
 : >57 | i
CC(=O)Nc1ccc(S(=O)(=O)N2CCSC2c2ccccc2Cl)cc1 (stereo not drawn)
 : >57 | i
CCOC(=O)CN1C(=O)C(CC)Oc2ccc(Cl)cc21 (stereo not drawn)
 : >57 | i
CNC(=O)c1cc2c(=O)n3cc(C)ccc3nc2n(C(C)C)c1=N
 : >57 | i
CCOC(=O)c1ccn(-c2nc(-c3ccco3)cc(C(F)(F)F)n2)n1
 : . | i
COc1cccc(-c2cc(C(=O)NCCc3ccccc3)no2)c1
 : >57 | i
O=C(NCc1ccco1)c1cc2ccccc2c(=O)o1
 : >57 | i
CCOC(=O)CC(=O)CSc1nc(C)nc2c1oc1ccccc12
 : . | i
Cn1nnc2cc(C(=O)N3CCCCCC3)ccc21
 : >11 | i
COc1ccc(C2C(C(C)=O)=C(O)C(=O)N2c2cccnc2)c(OC)c1 (stereo not drawn)
 : >57 | i
O=C(Nc1ccncc1)c1cc2ccccc2o1
 : . | i
CSc1nc2ccc(S(=O)(=O)N3CCc4ccccc43)cc2s1
 : >57 | i
c1ccc(CCNc2nc3ccccc3n3nnnc23)cc1
 : >57 | i
O=C1NCCCC1C(=O)N1CCN(C(c2ccccc2)c2ccccc2)CC1 (stereo not drawn)
 : . | i
CCCn1c(CCC(=O)O)ccc1-c1ccc(F)cc1
 : >57 | i
Cc1nc2ccc(Br)cn2c(=O)c1Cl
 : . | i
CCOC(=O)Cn1c(C)c(C#N)c2ccccc21
 : >57 | i
CCN1CCN(c2ncc3c(n2)CC(c2cc(OC)c(OC)c(OC)c2)CC3=O)CC1 (stereo not drawn)
 : >57 | i
COC(=O)c1ccccc1NC(=O)c1ccccc1OC
 : >57 | i
COc1ccc(OC)c(S(=O)(=O)N2CCC(C(=O)NCc3ccccc3OC)CC2)c1
 : >57 | i
O=C(Cc1ccc(Br)cc1)c1ccc(O)cc1O
 : . | i
COc1ccc(-n2nc3cc(C)c(NC(=O)C(C)C)cc3n2)cc1
 : >57 | i
COC(=O)c1[nH]c2ccccc2c1NC(=O)CN1CCN(C/C=C/c2ccccc2)CC1
 : >57 | i
CCN1CCCC1CNC(=O)c1ccc(N2CCCC2=O)cc1 (stereo not drawn)
 : >57 | i
CC1Cc2cc(C3(O)C(=O)c4ccccc4C3=O)ccc2N1 (stereo not drawn)
 : >57 | i
O=c1[nH]c(N2CCc3ccccc3C2)nc2c1CCCC2
 : >57 | i
CC1CN(c2cc3nccnc3cc2F)CC(C)O1 (stereo not drawn)
 : >57 | i
